RE007 growth inh: less growth of the S. pombe RE007 Vpr strain. S. pombe RE007 Vpr strain, BacTiter-Glo ATP luminescence, 24 h; control for the full effect not named in the record. Potency, µM (highest dose often 92.2 µM), for inactives: at the highest dose activity change, negative = less growth. hit rate 0.21% among 360,000. AID 651644; active = well fitted falling curve with a large enough effect; inconclusive = small, poorly fitted or top-dose-only effect; inactive = no such curve, though single readings can be large or run the other way;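 note: % is set by controls: 0 for no effect and ±100 for the full control effect; nearly all actives have a fitted effect of over 50% in size; the assay follows cell death caused by Vpr and the record does not say whether a fall means rescue or toxicity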
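Fission yeast RE007 carrying one integrated HIV-1 vpr copy, seeded at OD 0.01 in PMG+AL medium with 23 nL pinned compound. Grown 24 h at 30 degrees; viability read by BacTiter-Glo luminescence after 5 min.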
NS1 inh: blocks influenza NS1 protein function; AID 2326; Potency, µM (series often up to 46.1 µM), for the others: at the highest dose activity, positive = more growth; S. cerevisiae slowed by influenza A NS1, growth recovery by OD600; hit rate 0.4% among 270,000; active means well fitted rising curve with a large enough effect; inconclusive means small, poorly fitted or top-dose-only effect; inactive means no such curve, though single readings can be large or run the other way; note: nearly all actives have a fitted effect of over 50% in size
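Read-out: OD600 growth recovery of NS1-expressing budding yeast. Cells grown overnight at 30C in -URA glucose medium, washed, resuspended and diluted 1:100 in 2% galactose assay medium, pH 6.0. Same strain lacking NS1 served as positive control.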
Cruzain inh Det: cruzain (T. cruzi) inhibition with detergent; P25779; purified cruzain, Z-FR-AMC fluorescence, 0.01% Triton; Potency, µM, for the others: max response, negative = inhibition, usual class: inhibitors; hit rate 0.43% among 200,000;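 note: plate controls were neutral wells for no effect and buffer without enzyme for full effect; nearly all actives have a fitted effect of over 40% in size; top concentration of the series not given in the record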
Target sequence (P25779 123-467 limits assumed): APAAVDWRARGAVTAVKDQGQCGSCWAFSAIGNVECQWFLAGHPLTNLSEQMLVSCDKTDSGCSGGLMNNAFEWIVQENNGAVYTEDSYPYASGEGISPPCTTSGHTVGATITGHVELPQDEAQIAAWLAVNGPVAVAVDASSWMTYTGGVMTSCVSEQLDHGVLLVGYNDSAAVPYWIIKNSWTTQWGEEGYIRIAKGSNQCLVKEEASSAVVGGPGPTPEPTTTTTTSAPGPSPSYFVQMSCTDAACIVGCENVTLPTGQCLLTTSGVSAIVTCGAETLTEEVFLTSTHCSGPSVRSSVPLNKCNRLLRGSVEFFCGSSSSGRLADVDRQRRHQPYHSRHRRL
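Detergent-containing arm of a paired screen for aggregation-based inhibition: 0.01% Triton X-100 present. Cruzain at 1.5 nM cleaved 2 uM Z-FR-AMC at pH 5.5 with 5 mM DTT; AMC fluorescence gain over 60 s measured activity.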
Cruzain noTriton: cruzain (T. cruzi) inhibition without detergent | AID 1476 | Potency, µM, inactives show max response, negative = inhibition, most hits filed as inhibitors | purified cruzain, Z-FR-AMC fluorescence, no detergent | hit rate 2.3% among 200,000;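 note: plate controls were enzyme without inhibitor for no effect and buffer without enzyme for full effect; nearly all actives have a fitted effect of over 40% in size; top concentration of the series not given in the record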
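Purified cruzain at 1.5 nM, pre-incubated 15 min with compound at room temperature in 100 mM sodium acetate pH 5.5, 5 mM DTT, 0.00005% Triton X-100. Reaction started with 2 uM Z-FR-AMC; AMC fluorescence increase over 60 s gives rate.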
SARS PLpro yeast: inhibitors of SARS-CoV papain-like protease in yeast. hit rate 0.19% among 330,000. Potency, µM (series often up to 32.9 µM), for inactives: at the top dose activity, positive = growth rescue. S. cerevisiae expressing SARS-CoV PLpro, growth rescue; control for the full effect not named in the record; active means well fitted rising curve with a large enough effect; inconclusive means small, poorly fitted or top-dose-only effect; inactive means no such curve, though single readings can be large or run the other way; note: 0% is about no effect; nearly all actives have a fitted effect of over 55% in size; growth read by luminescence after 48 h
MARV entry inh: blocks Marburg virus binding to or entry into cells | Marburg virus pseudotyped entry inhibition, cell reporter; control for the full effect not named in the record; about a third of the inactives were read at about 46 µM | hit rate 1.8% among 300,000 | AID 540276 | Potency, µM (highest dose often 37.8 µM), inactives show top-dose activity change, negative = inhibition, most hits filed as inhibitors; active = well fitted inhibition curve with a large enough effect; inconclusive = small, poorly fitted or top-dose-only effect, or effect the other way; inactive = flat fitted curve, though single readings scatter; tested in HEK293 cells; about a fifth of its hits are not listed in these tables; note: % is set by controls: 0 for no effect and ±100 for the full control effect; luciferase read-out
Lassa entry inh: Lassa virus entry inhibition | Lassa virus pseudotype entry inhibition, cell reporter; control for the full effect not named in the record | Potency, µM (top dose mostly 37.9 µM), inactives show at the top dose activity change, negative = inhibition, hits mostly inhibitors | hit rate 1.2% among 300,000; active means well fitted inhibition curve with a large enough effect; inconclusive means small, poorly fitted or top-dose-only effect, or effect the other way; inactive means flat fitted curve, though single readings scatter; tested in HEK293 cells; note: % is set by controls: 0 for no effect and ±100 for the full control effect; nearly all actives have a fitted effect of over 50% in size; luciferase read-out
StopGo reporter: lowers the luciferase signal of an FMDV 2A StopGo reporter. human cells with a luciferase reporter of 2A StopGo recoding; control for the full effect not named in the record. Potency, µM (highest dose often 57.9 µM), for inactives: top-dose signal change, negative = less light. hit rate 1.2% among 410,000. AID 1159524; active = well fitted falling curve with a large enough effect; inconclusive = small, poorly fitted or top-dose-only effect; inactive = no such curve, though single readings can be large or run the other way; tested in HEK293T cells; note: % is set by controls: 0 for no effect and ±100 for the full control effect; nearly all actives have a fitted effect of over 45% in size; luciferase light after 4 h
Active calls of the source: *; & = joins results of further samples; [ ] = dose if it differs, or a comment. Unless noted, calls come from the whole dose curve; as a rule, active = well fitted curve in the direction sought with a large enough effect; inconclusive = small, poorly fitted or top-dose-only effect, or another doubt; inactive = no such curve, though single readings can be large; an effect the other way counts as inactive or inconclusive. Potency is the fitted concentration of half-maximal effect. Rows were taken by chance. About 4.8% of those tested had a hit in this group.

Results for NC(=O)CSc1ncc(-c2ccccc2)[nH]1 ?
RE007 growth inh: 3%; NS1 inh: -6%; Cruzain inh Det: -0.9%; Cruzain noTriton: 5%; SARS PLpro yeast: -5%; MARV entry inh: 15%; Lassa entry inh: inconclusive; StopGo reporter: 68%[activator]

What do the screens show for `Cn1c(SCc2ccc(F)cc2)nc2ccc(C(=O)NCc3ccccc3)cc21`?
Cruzain inh Det: -3.1%; Cruzain noTriton: -6%; MARV entry inh: 2%[46.1 µM]; StopGo reporter: -38%

What do the screens show for `CCN(CC)c1nc2c(C)cccn2c(=O)c1C=C1C(=O)NC(=O)NC1=O`?
RE007 growth inh: 0%; SARS PLpro yeast: 0%; MARV entry inh: 14%[46.1 µM]; Lassa entry inh: 10%[46.1 µM]; StopGo reporter: -15%

How did O=C(c1ccc(Cl)cc1)N1CCN(c2ccc([N+](=O)[O-])c(NCc3cccnc3)c2)CC1 do in these assays?
RE007 growth inh: -2%; MARV entry inh: inconclusive; Lassa entry inh: inconclusive; StopGo reporter: inconclusive

What do the screens show for `CCOC(=O)c1c(CN2CCOCC2)n(-c2ccccc2)c2cc(Br)c(O)c(CN(C)C)c12`?
RE007 growth inh: -3%; NS1 inh: 7%; Cruzain inh Det: 5.3%; Cruzain noTriton: -1%; SARS PLpro yeast: 5%; MARV entry inh: -14%; Lassa entry inh: inconclusive; StopGo reporter: -19%

Results for CN(C)NC(=S)Nc1ccc2nc(-c3ccccn3)c(-c3ccccn3)nc2c1 ?
RE007 growth inh: -7%; NS1 inh: -2%; Cruzain inh Det: 2.4%; Cruzain noTriton: 1%; SARS PLpro yeast: 6%; MARV entry inh: 28%; Lassa entry inh: 1%; StopGo reporter: 16%

Results for Cc1cccc(CSc2nnc(CCCCCN)o2)c1 ?
Cruzain inh Det: -0.7%; Cruzain noTriton: 7%; MARV entry inh: inconclusive; Lassa entry inh: inconclusive; StopGo reporter: -19%

Results for Cc1nc(SCc2ccc(O)c([N+](=O)[O-])c2)n[nH]1 ?
RE007 growth inh: 3%; NS1 inh: 23%; Cruzain inh Det: 0.0%; Cruzain noTriton: -6%; SARS PLpro yeast: 5%; MARV entry inh: 4%[46.1 µM]; Lassa entry inh: 2%; StopGo reporter: -7%

What do the screens show for `CCCNC(=O)c1[nH]c(C)c(C(C)=O)c1C`?
RE007 growth inh: 4%; NS1 inh: -6%; Cruzain inh Det: 9.1%; Cruzain noTriton: -2%; SARS PLpro yeast: 17%; MARV entry inh: -10%[46.1 µM]; Lassa entry inh: -6%; StopGo reporter: 29%

How did COC(=O)CCCC(=O)OC do in these assays?
RE007 growth inh: 11%; Cruzain inh Det: -0.8%; Cruzain noTriton: -1%; SARS PLpro yeast: 1%; StopGo reporter: -16%

What do the screens show for `NC(=S)N/N=C/c1ccc(/C=N/NC(N)=S)cc1`?
RE007 growth inh: -6%; NS1 inh: 7%; SARS PLpro yeast: 6%; StopGo reporter: -16%

Results for COc1ccccc1NC(=O)C(=O)c1cn(CC(=O)N2CCOCC2)c2ccccc12 ?
RE007 growth inh: -1%; NS1 inh: 1%; SARS PLpro yeast: 0%; StopGo reporter: 45%[activator]

How did COc1cc(NC(=O)CN2C(=O)C(c3ccc(Cl)cc3)=NC23CCCCC3)cc(OC)c1 do in these assays?
Cruzain inh Det: -7.4%; Cruzain noTriton: -23%; MARV entry inh: inconclusive; Lassa entry inh: -22%[46.1 µM]; StopGo reporter: -26%

How did CC(C)N1CN(c2ccccc2)C(=S)N(c2ccccc2)C1 do in these assays?
RE007 growth inh: -7%; NS1 inh: 5%; SARS PLpro yeast: 0%; MARV entry inh: 9%[46.1 µM]; Lassa entry inh: 9%; StopGo reporter: 30%[activator]

How did Cc1ccc(-c2n[nH]c3c2CCC3)cc1 do in these assays?
RE007 growth inh: -14%; NS1 inh: -58%; Cruzain inh Det: 0.0%; Cruzain noTriton: 9%; SARS PLpro yeast: -16%; MARV entry inh: inconclusive; StopGo reporter: 25%

What do the screens show for `Cc1ccc(NC(=O)CSc2nc3ccccc3nc2N2CCOCC2)cc1`?
RE007 growth inh: 7%; NS1 inh: 13%; Cruzain inh Det: -12%; Cruzain noTriton: 11%; SARS PLpro yeast: -1%; MARV entry inh: inconclusive; Lassa entry inh: inconclusive; StopGo reporter: 2%&-10%

Results for CCC(=O)N1CCc2cc(S(=O)(=O)N3CCCC3)ccc21 ?
RE007 growth inh: 4%; NS1 inh: 4%; SARS PLpro yeast: -3%; StopGo reporter: 0%

How did COc1ccc(CCNC(=O)c2ccc3nc(N4CCCCC4)sc3c2)cc1OC do in these assays?
RE007 growth inh: -12%; NS1 inh: -5%; SARS PLpro yeast: -9%; StopGo reporter: inconclusive

What do the screens show for `CC1CCCC(C)N1CCCNC(=O)CCn1c(=O)c2cccn2c2cccnc21` (stereo not drawn)?
RE007 growth inh: -9%; NS1 inh: 5%; SARS PLpro yeast: 5%; StopGo reporter: -5%

What do the screens show for `CCCNC(=O)C1=C(C)C(=O)OC12CCC(C)CC2` (stereo not drawn)?
RE007 growth inh: -2%; NS1 inh: inconclusive; Cruzain inh Det: -0.9%; Cruzain noTriton: -10%; SARS PLpro yeast: -4%; MARV entry inh: 41%; Lassa entry inh: 4%; StopGo reporter: -11%

How did O=C(Nc1c(Cl)cccc1Cl)c1cccc2c1C(=O)N(C1CCCCC1)C2 do in these assays?
Cruzain inh Det: -1.8%; Cruzain noTriton: -3%; MARV entry inh: -3%[46.1 µM]; Lassa entry inh: 9%[46.1 µM]; StopGo reporter: -4%

What do the screens show for `COC(=O)c1ccc(NC(=O)c2c(NCc3ccc(OC)c(OC)c3)sc3c2CCCC3)cc1`?
Cruzain inh Det: -9.5%; Cruzain noTriton: 21%; Lassa entry inh: -13%[46.1 µM]; StopGo reporter: -1%

What do the screens show for `CN(C(=O)CN1CCN(c2cnn(-c3ccccc3)c(=O)c2Cl)CC1)C1CCS(=O)(=O)C1` (stereo not drawn)?
RE007 growth inh: -8%; SARS PLpro yeast: -14%; MARV entry inh: 9%; Lassa entry inh: 11%; StopGo reporter: -6%

Results for C=CCSC1=C(C#N)C(c2ccccc2OC)CC(=O)N1 (stereo not drawn) ?
RE007 growth inh: -9%; NS1 inh: -2%; Cruzain inh Det: 1.7%; Cruzain noTriton: -3%; SARS PLpro yeast: 5%; MARV entry inh: inconclusive; Lassa entry inh: inconclusive; StopGo reporter: inconclusive

How did CCC1C2Cc3ccc(O)cc3C1(CC)CCN2C (stereo not drawn) do in these assays?
RE007 growth inh: 1%; MARV entry inh: -26%; Lassa entry inh: -5%; StopGo reporter: -23%

What do the screens show for `Cc1ccc(CNC(=O)COC(=O)CCCOc2ccc(Cl)cc2Cl)cc1`?
RE007 growth inh: 2%; NS1 inh: -8%; Cruzain inh Det: -8.2%; Cruzain noTriton: inconclusive; SARS PLpro yeast: 3%; MARV entry inh: -11%; Lassa entry inh: -12%; StopGo reporter: -22%

How did Oc1cc(Cl)c(Cl)c(Cl)c1Cl do in these assays?
RE007 growth inh: -22%; Cruzain inh Det: -8.6%; Cruzain noTriton: -7%; MARV entry inh: -6%[46.1 µM]; Lassa entry inh: 0%; StopGo reporter: -24%

How did Cc1ccn2c(c1)nc(=O)c1cc(S(=O)(=O)N3CCC(C)CC3)c(Cl)cc12 do in these assays?
Cruzain inh Det: 2.0%; Cruzain noTriton: -3%; MARV entry inh: -12%[46.1 µM]; Lassa entry inh: 20%[46.1 µM]; StopGo reporter: -27%

What do the screens show for `CSc1ccccc1NC(=O)CN(Cc1ccccc1)S(C)(=O)=O`?
RE007 growth inh: 7%; NS1 inh: -7%; Cruzain inh Det: -1.9%; Cruzain noTriton: -4%; SARS PLpro yeast: 3%; MARV entry inh: 3%; Lassa entry inh: 0%; StopGo reporter: -3%

How did COc1ccc(CNC(=O)c2c(Nc3ccc(OC)cc3OC)sc(C(=O)c3ccc(Cl)cc3)c2N)cc1 do in these assays?
Cruzain inh Det: -0.4%; Cruzain noTriton: 13µM*; Lassa entry inh: -25%[46.1 µM]; StopGo reporter: -9%

What do the screens show for `O=C(O)c1nn(-c2ccccc2)nc1-c1nn(-c2ccccc2)nc1C(=O)O`?
RE007 growth inh: -17%; NS1 inh: 1%; Cruzain inh Det: 5.1%; Cruzain noTriton: -1%; SARS PLpro yeast: 12%; MARV entry inh: -10%; Lassa entry inh: -4%; StopGo reporter: -26%

How did COc1ccc(/C=N/n2c(N)c(S(=O)(=O)c3cccs3)c3nc4ccccc4nc32)cc1OC do in these assays?
RE007 growth inh: 1%[3.69 µM]; NS1 inh: 5%; Cruzain inh Det: -3.3%; Cruzain noTriton: 2%; SARS PLpro yeast: 2%; MARV entry inh: inconclusive; Lassa entry inh: -10%; StopGo reporter: -24%

What do the screens show for `Cc1c([N+](=O)[O-])cc(S(=O)(=O)Nc2ccncc2)cc1[N+](=O)[O-]`?
RE007 growth inh: -12%; NS1 inh: 12%; SARS PLpro yeast: 0%; StopGo reporter: 42%[activator]

How did O=C(NC(=S)Nc1ccccc1N1CCCCC1)c1ccccc1 do in these assays?
RE007 growth inh: -2%; NS1 inh: -4%; SARS PLpro yeast: 14%; StopGo reporter: inconclusive

How did C/C(=N\NC(=O)c1ccco1)c1cc(Cl)sc1Cl do in these assays?
RE007 growth inh: -1%; NS1 inh: -35%; SARS PLpro yeast: -3%; StopGo reporter: 53%[activator]

How did O=C1CC(c2nnc(Cc3ccc(F)cc3Cl)o2)CN1c1ccccc1 (stereo not drawn) do in these assays?
Cruzain inh Det: -2.5%; Cruzain noTriton: 10%; MARV entry inh: 4%[46.1 µM]; Lassa entry inh: -3%[46.1 µM]; StopGo reporter: 12%

What do the screens show for `CCOC(=O)C1CCCN(C(=O)c2sc3nc(-c4ccccc4)cn3c2C)C1` (stereo not drawn)?
RE007 growth inh: -13%; NS1 inh: -13%; Cruzain inh Det: -1.5%; Cruzain noTriton: 15%; SARS PLpro yeast: -8%; MARV entry inh: -14%&-3%; Lassa entry inh: -6%; StopGo reporter: -21%

How did N#Cc1ccc(S(=O)(=O)NC2CC2)cc1 do in these assays?
RE007 growth inh: 75%; NS1 inh: 5%; SARS PLpro yeast: -3%; MARV entry inh: 23%[46.1 µM]; StopGo reporter: 8%

Screening data: PubChem BioAssay, National Center for Advancing Translational Sciences (NCATS)
